# Compound activity as filed in PubChem BioAssay.
# SARS PLpro yeast = SARS-CoV PLP inhibition in yeast; 330,000 compounds, 0.19% hits; S. cerevisiae expressing SARS-CoV PLpro, growth rescue; control for the full effect not named in the record; Potency, µM (series often up to 32.9 µM), for the others: at the highest dose activity, positive = growth rescue; active means well fitted rising curve with a large enough effect; inconclusive means small, poorly fitted or top-dose-only effect; inactive means no such curve, though single readings can be large or run the other way; further: 0% is about no effect; nearly all actives have a fitted effect of over 55% in size; growth read by luminescence after 48 h
# Cruzain Triton = cruzain (T. cruzi) inhibition with detergent; P25779; purified cruzain, Z-FR-AMC fluorescence, 0.01% Triton; Potency, µM, for inactives: max response, negative = inhibition, hits mostly inhibitors; 200,000 compounds, 0.43% hits;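 further: plate controls were neutral wells for no effect and buffer without enzyme for full effect; nearly all actives have a fitted effect of over 40% in size; top concentration of the series not given in the record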
# Target sequence (P25779 123-467 limits assumed): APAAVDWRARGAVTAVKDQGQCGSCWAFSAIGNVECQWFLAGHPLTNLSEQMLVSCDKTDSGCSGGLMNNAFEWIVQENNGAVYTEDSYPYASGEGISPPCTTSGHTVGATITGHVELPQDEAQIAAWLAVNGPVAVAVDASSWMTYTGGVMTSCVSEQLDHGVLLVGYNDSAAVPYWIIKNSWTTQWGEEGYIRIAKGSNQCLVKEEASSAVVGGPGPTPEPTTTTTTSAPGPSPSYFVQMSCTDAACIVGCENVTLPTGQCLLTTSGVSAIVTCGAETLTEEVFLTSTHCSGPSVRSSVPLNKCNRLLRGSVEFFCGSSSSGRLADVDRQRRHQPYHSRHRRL
#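 Compounds were screened in titration against cruzain (1.5 nM) with 0.01% Triton X-100 to counter colloidal aggregation. Activity was the AMC fluorescence increase over 60 s after adding 2 uM Z-FR-AMC at pH 5.5.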
# NS1 function inh = inhibitors of influenza NS1 protein function | S. cerevisiae slowed by influenza A NS1, growth recovery by OD600 | Potency, µM (titrated, usually from 46.1 µM), for inactives: top-dose activity, positive = more growth | 270,000 compounds, 0.4% hits; active means well fitted rising curve with a large enough effect; inconclusive means small, poorly fitted or top-dose-only effect; inactive means no such curve, though single readings can be large or run the other way; further: nearly all actives have a fitted effect of over 50% in size
#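 In this qHTS, NS1 from influenza A is expressed in budding yeast, where it slows growth. Cells are switched from glucose to 2% galactose medium (pH 6.0, -URA), treated with compound, and growth recovery is read at OD600.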
# Cruzain noTriton = blocks cruzain activity in detergent-free assay | 200,000 compounds, 2.3% hits | purified cruzain, Z-FR-AMC fluorescence, no detergent | P25779 | Potency, µM, inactives show max response, negative = inhibition, most hits filed as inhibitors;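 further: plate controls were enzyme without inhibitor for no effect and buffer without enzyme for full effect; nearly all actives have a fitted effect of over 40% in size; top concentration of the series not given in the record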
#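 Purified cruzain at 1.5 nM, pre-incubated 15 min with compound at room temperature in 100 mM sodium acetate pH 5.5, 5 mM DTT, 0.00005% Triton X-100. Reaction started with 2 uM Z-FR-AMC; AMC fluorescence increase over 60 s gives rate.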
# StopGo reporter = lowers the luciferase signal of an FMDV 2A StopGo reporter. human cells with a luciferase reporter of 2A StopGo recoding; control for the full effect not named in the record. Potency, µM (titrated, usually from 57.9 µM), inactives show at the top dose signal change, negative = less light. 410,000 compounds, 1.2% hits; active = well fitted falling curve with a large enough effect; inconclusive = small, poorly fitted or top-dose-only effect; inactive = no such curve, though single readings can be large or run the other way; tested in HEK293T cells; further: on the % scale 0 is the no-effect control and ±100 the full control effect; nearly all actives have a fitted effect of over 45% in size; luciferase light after 4 h
# LASV entry inh = inhibitors of Lassa virus binding or cell entry; Lassa virus pseudotype entry inhibition, cell reporter; control for the full effect not named in the record; AID 540256; 300,000 compounds, 1.2% hits; Potency, µM (highest dose often 37.9 µM), for inactives: at the top dose activity change, negative = inhibition, usual class: inhibitors; active means well fitted inhibition curve with a large enough effect; inconclusive means small, poorly fitted or top-dose-only effect, or effect the other way; inactive means flat fitted curve, though single readings scatter; tested in HEK293 cells; further: on the % scale 0 is the no-effect control and ±100 the full control effect; nearly all actives have a fitted effect of over 50% in size; luciferase read-out
# MARV entry inh = inhibitors of Marburg virus binding or cell entry; Marburg virus pseudotyped entry inhibition, cell reporter; control for the full effect not named in the record; about a third of the inactives were read at about 46 µM; Potency, µM (titrated, usually from 37.8 µM), for inactives: top-dose activity change, negative = inhibition, hits mostly inhibitors; 300,000 compounds, 1.8% hits; active = well fitted inhibition curve with a large enough effect; inconclusive = small, poorly fitted or top-dose-only effect, or effect the other way; inactive = flat fitted curve, though single readings scatter; tested in HEK293 cells; about a fifth of its hits are not listed in these tables; further: on the % scale 0 is the no-effect control and ±100 the full control effect; luciferase read-out
# RE007 growth inh = less growth of the S. pombe RE007 Vpr strain; AID 651644; 360,000 compounds, 0.21% hits; S. pombe RE007 Vpr strain, BacTiter-Glo ATP luminescence, 24 h; control for the full effect not named in the record; Potency, µM (top dose mostly 92.2 µM), for inactives: at the highest dose activity change, negative = less growth; active = well fitted falling curve with a large enough effect; inconclusive = small, poorly fitted or top-dose-only effect; inactive = no such curve, though single readings can be large or run the other way;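 further: on the % scale 0 is the no-effect control and ±100 the full control effect; nearly all actives have a fitted effect of over 50% in size; the assay follows cell death caused by Vpr and the record does not say whether a fall means rescue or toxicity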
#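 Fission yeast RE007 carrying one integrated HIV-1 vpr copy, seeded at OD 0.01 in PMG+AL medium with 23 nL pinned compound. Grown 24 h at 30 degrees; viability read by BacTiter-Glo luminescence after 5 min.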
# The depositor's hits bear a star; ? = inconclusive; / = not tested or not shown; & = joins results of further samples; [ ] = another dose, or the depositor's remark. Unless noted, the call rests on the fitted dose curve; in most records, active means well fitted curve in the direction sought with a large enough effect; inconclusive means small, poorly fitted or top-dose-only effect, or another doubt; inactive means no such curve, though single readings can be large; an effect the other way counts as inactive or inconclusive. Potency means the concentration at half of the fitted maximal effect. Compounds as they come, and some 4.8% of all compounds hit somewhere here.
SMILES,SARS PLpro yeast,Cruzain Triton,NS1 function inh,Cruzain noTriton,StopGo reporter,LASV entry inh,MARV entry inh,RE007 growth inh
COc1ccc(N2CCN(C(=O)CSc3nnc(C)c(=O)[nH]3)CC2)cc1,4%,-0.4%,-3%,2%,/,3%,12%,-8%
Cc1ccccc1CN1c2ccccc2-c2nc(SCC(=O)c3ccccc3)ncc2S1(=O)=O,/,2.3%,/,-9%,7%,15%[46.1 µM],/,/
CCn1ncc(/C=N\NC(=O)Cc2ccc([N+](=O)[O-])cc2)c1C,-6%,-1.2%,9%,5%,-1%,-16%,?,-2%
O=C(CN1CCOCC1)Nc1ccc(Br)cc1C(=O)c1ccccc1,10%,-2.8%,-18%,11%,/,-2%,9%,13%
COc1cccc(CNc2ccc3[nH]c(=O)[nH]c3c2)c1OCc1ccc(F)cc1,-1%,/,?,/,?,-10%[46.1 µM],?,7%
CCOC(=O)c1c(CN2CCN(C)CC2)oc2ccc(O)cc12,2%,5.5%,5%,1%,-2%,22%,-2%,4%
O=C(CSc1nnc(Cc2csc(Nc3cccc(Cl)c3)n2)o1)N1CCc2ccccc21,6%,2.4%,-20%,?,-27%,?,?,-2%
COc1ccc(-c2ccnc3cc(C(=O)O)nn23)cc1,2%,/,8%,/,10%,-2%[46.1 µM],11%[46.1 µM],?
O=C(NCc1ccco1)c1ccc2c(c1)OCCO2,-1%,/,3%,/,16%,?,37%[46.1 µM],-2%
Oc1c(Br)cc(Br)cc1CNc1cnc2ccccc2c1,-18%,/,-30%,/,-19%,/,/,-24%
CC(C)NC(=O)CCc1nc2cccnc2n1-c1ccccc1,1%,/,3%,/,-7%,6%[46.1 µM],0%[46.1 µM],-3%
O=C(N/N=C/c1cccc(F)c1)c1c(O)c2c([nH]c1=O)CCCC2,-12%,-3.1%,21%,20µM*,0%,?,?,4%
C=C(C)Cn1c(SCC(=O)Nc2ccccc2C)nc2sc3c(c2c1=O)CCCC3,/,-2.1%,/,-11%,-8%,3%[46.1 µM],3%[46.1 µM],/
Brc1ccccc1OCCNCc1ccccc1,0%,/,/,/,42%[activator],-26%,?,-20%
O=C(NNc1ccc(Cl)cc1)C1CCC1,-4%,/,-68%,/,-11%,-20%,11%,105%
CCOC(=O)c1[nH]c2ccccc2c1NC(=O)c1ccc(S(=O)(=O)N(C)C)cc1,?,-4.3%,10%,0%,-14%,-10%,2%,-4%
COc1ccccc1NC(=O)NCCN1C(=O)C2C3C=CC(C3)C2C1=O (stereo not given),5%,-7.4%,?,-10%,3%,/,/,-2%
Cc1ccc(C)c(OCc2cc(C(=O)NC3CCN(Cc4ccccc4)CC3)no2)c1,-3%,/,-11%,/,?,/,/,-8%
COc1ccccc1CCNC(=O)c1ccc(Br)s1,-2%,/,-49%,/,21%,/,/,-3%
Cc1c(NC(=O)c2cc3nc(-c4ccccc4)cc(C)n3n2)c(=O)n(-c2ccccc2)n1C,2%,2.3%,?,-4%,-27%,13%,4%,6%
O=C(NCCc1ccccc1)c1cnc2ccccc2n1,-2%,/,-9%,/,34%[activator],/,/,-5%
CC1(C)Cc2c(c(N3CCOCC3)nc3sc(C(=O)Nc4cccc(Cl)c4)c(N)c23)CO1,-2%,/,-10%,/,-15%,/,/,3%
CC(=O)Nc1ccc(S(=O)(=O)Nc2c(NC3CCCCC3)c3ccccc3oc2=O)cc1,2%,/,-3%,/,-16%,/,/,-10%
CCOC(=O)[C@@H]1[C@H]2COc3cc(OC)ccc3[C@H]2N2C(=O)N(c3ccc(F)cc3)C(=O)[C@@]12C,-1%,/,16%,/,-15%,/,/,16%
Cc1cc(=O)oc2cc(Oc3ccc(C(N)=O)cc3[N+](=O)[O-])ccc12,0%,/,-4%,/,-10%,/,/,-2%
CCOC(=O)N1CCN(S(=O)(=O)c2cc(Br)cnc2N)CC1,0%,-0.1%,0%,-5%,-6%,1%,6%,9%
CCSc1ncc(Cl)c(C(=O)N2CCN(c3ccc(OC)cc3)CC2)n1,/,-3.5%,/,-9%,-10%,1%[46.1 µM],-8%[46.1 µM],/
COc1cccc(CNC(=O)CSc2cc(=O)n(C)c3ccccc23)c1,-1%,/,/,/,-2%,6%[46.1 µM],?,3%
COc1ccc(CCC(=O)N2CCN(c3ccccc3)CC2)cc1OC,2%,/,1%,/,-22%,-8%[46.1 µM],-23%[46.1 µM],-3%
Cc1cc(C(=O)Nc2ccc(S(=O)(=O)Nc3nccs3)cc2)c(C)o1,0%,-6.0%,-9%,0%,107%[activator],6%,?,1%
CC(C)[C@H](NC(=O)N1CCn2c1nc1ccccc12)C(=O)NCc1ccccc1Cl,-9%,/,-9%,/,-8%,/,/,1%
CCc1ccc(-c2nc(CN3CCC(C(=O)NCc4ccccc4OC)CC3)c(C)o2)cc1,0%,5.3%,-2%,1%,?,?,?,-7%[3.69 µM]
COC(C[C@@H](O)[C@H](C)[C@H](O)COCc1ccccc1)OC,-1%,/,?,/,-14%,/,/,-11%
CC(=O)c1sc(NC(=O)c2cnc(Cl)c(Cl)c2)nc1C,-5%,/,-14%,/,-14%,/,?,-6%
CCOc1ccc(Oc2nc(N(CC)CC)nc(N3CCOCC3)n2)nn1,1%,/,/,/,40%[activator],-15%,-4%[46.1 µM],-16%
Oc1ccccc1C=NN=Cc1c(O)ccc2ccccc12,/,/,/,/,24%,-11%,?,6%
COc1ccc(C(c2sc3nc(C)nn3c2O)N2CCN(Cc3ccccc3)CC2)cc1OC (stereo not given),1%,-7.8%,-9%,0%,-9%,/,/,2%
CCN1C(=O)c2cccc3c(S(=O)(=O)Nc4ccc(O)c(C(=O)O)c4)ccc1c23,-1%,-8.4%,-1%,-5%,2%&-14%,?,0%&0%[46.1 µM],1%
COC(=O)[C@@]1(Cc2ccc(F)cc2)[C@H]2c3cc(C(=O)N(C)C)n(CCF)c3C[C@H]2CN1C(=O)c1ccccc1,/,-2.2%,/,?,-17%,/,/,21%
COc1ccc(O)c(C(=O)c2cc(C#N)c(=O)n(Cc3ccccc3)c2)c1,1%,/,/,/,-22%,-21%,0%[46.1 µM],2%
O=[n+]1c2c(n([O-])c3ccccc31)CCC2,/,-7.7%,8%,-4%,-15%,7%,-3%,-6%
CC(NC(=O)c1ccc2nc[nH]c2c1)c1ccccc1 (stereo not given),0%,/,4%,/,5%,1%,?,-2%
CCOc1ccc(N(C(=O)CNC(=O)c2cccs2)C(C(=O)NCC2CCCO2)c2ccc(OC)c(OC)c2)cc1 (stereo not given),-1%,/,-10%,/,-6%,2%,-9%[46.1 µM],11%
O=C(C=CC(=O)OC1CCCCC1)OC1CCCCC1,/,/,/,/,2%,-18%[46.1 µM],?,-19%
Cc1cc(C)nc(NC(N)=NCCc2c[nH]c3ccccc23)n1,0%,/,0%,/,-20%,-17%[46.1 µM],?,-5%
COc1cc(OC)c(NC(=O)CCCn2c(=O)oc3ccccc32)cc1Cl,23%,-3.6%,-3%,-1%,-18%,9%,5%,29%
COc1ccc(CC(=O)NNC(=S)NC(=O)c2cccnc2)cc1,0%,/,3%,/,4%,13%,?,3%
CC1Cc2cc(/C(O)=C3\C(=O)C(=O)N(CCN(C)C)C3c3ccccc3F)ccc2O1 (stereo not given),1%,-1.2%,-16%,-10%,16%,1%,1%,-12%
COc1ccc2cc(N=Cc3nc(-c4ccc(C)cc4)oc3O)cnc2c1,0%,/,/,/,-7%,2%,0%[46.1 µM],-2%
O=C(O)CNc1ncccc1[N+](=O)[O-],1%,/,2%,/,-8%,16%,?,13%
Cc1cc(C)n(CCC(=O)N/N=C/c2ccc(Br)c([N+](=O)[O-])c2)n1,-1%,/,-5%,/,-27%,14%[46.1 µM],?,7%
O=c1oc2cc(OCc3c(F)cccc3Cl)ccc2cc1-c1ccccn1,6%,-0.4%,-11%,23%,-27%,?,2%,2%
Cc1ccc(CNC(=O)C2CCCN(S(=O)(=O)N3CC(C)CC(C)C3)C2)cc1 (stereo not given),-2%,/,-6%,/,?,/,/,6%
COc1ccc(N(CC(=O)NCCC2=CCCCC2)S(C)(=O)=O)cc1OC,-1%,-0.4%,4%,3%,-22%,17%,-6%,-4%
COC(=O)C1(Cc2cc(-c3ccccc3)no2)CCN(C(=O)OC(C)(C)C)CC1,-7%,/,-24%,/,5%,/,/,-9%
COc1ccc(NP2(=O)NCCCN2)cc1,/,/,/,/,14%,?,-10%[46.1 µM],1%
COc1ccc(CN(C)C(C)C(=O)Nc2cccc3ccccc23)cc1 (stereo not given),0%,/,-16%,/,-18%,-4%,-16%[46.1 µM],-9%
CN(C)C=Nc1ccc2nn(-c3ccccc3)nc2c1,?,-10.0%,-14%,-2%,15%,?,?,?
O=c1nc(N/N=C/C=C/c2ccccc2)cn[nH]1,-2%,/,-4%,/,?,2.2µM*,-9%[46.1 µM],-1%
COc1cc(S(=O)(=O)N2CCCCCC2)c(OC)cc1Br,1%,-6.2%,-13%,9%,24%,-18%,-9%,9%
# New compounds follow:
SMILES,SARS PLpro yeast,Cruzain Triton,NS1 function inh,Cruzain noTriton,StopGo reporter,LASV entry inh,MARV entry inh,RE007 growth inh
O=C(CCNS(=O)(=O)c1cccc2nsnc12)NCc1ccccc1Cl,-5%,/,/,/,-5%,-11%,3%,0%
CC(C)(C)NCc1cc(Cl)ccc1OCc1cccs1,23%,4.2%,-9%,-6%,8%,-23%,?,-3%
CC1(O)CC2CC1C(C(=O)O)C2C(=O)O (stereo not given),/,/,/,/,0%,15%,4%,13%
COc1ccc(-c2nc3ccccc3c(=O)n2-c2nccs2)cc1,-1%,4.1%,-9%,0%,3%,0%,0%,-11%[3.69 µM]
CC(C(=O)Nc1ccc(S(=O)(=O)N2CCOCC2)cc1)N1C(=O)C2CC=CCC2C1=O (stereo not given),0%,/,/,/,-15%,4%[46.1 µM],21%[46.1 µM],-8%
O=C(Nc1ccc(N2CCCC2)cc1)c1ccc(Cl)cc1Cl,2%,/,4%,/,8%,23%[46.1 µM],11%[46.1 µM],16%
O=C(CC1C(=O)NCCN1Cc1ccc(Cl)c(F)c1)NC1CCCCC1 (stereo not given),-4%,/,?,/,5%,0%,4%,14%
